# Bioassay records from PubChem.
# A1 inh: inhibitors of the anti-apoptotic protein A1, read as caspase activation | MEF A1-2A-BIM cells, Caspase-Glo 3/7 luminescence, 3 h; percent of clofoctol response, vehicle zero | AID 2462 | hit rate 0.066% among 330,000 | caspase activation, % (no concentration beside the values);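 active = over half of replicate activation scores above 10%, or exactly half above 10 with the replicate mean above 10; inconclusive = replicate mean below 10 yet half the replicates above 10; inactive = over half of replicates below 10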;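 also: wells of about 30 µL received 50 nL stock; many hits fall short of the cut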
# T cruzi inh: blocks replication of Trypanosoma cruzi | T. cruzi beta-gal in NIH3T3, luminescence, 90 h | inhibition, % (no concentration beside the values) | hit rate 1.4% among 300,000 | AID 1885;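 active = mean inhibition across valid replicates above about 55%, limit read from the data; inconclusive = mean below that limit but half or more replicates reach it; inactive = mean below it, under half of replicates reach it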;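 also: signal also drops with host cell toxicity which is not excluded here; 0% = plate median of DMSO wells and 100% = zero luminescence signal; higher percent means less beta-gal luminescence so fewer parasites; stock transfer was 50 nL into about 50 µL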
# Beta apoptosis: beta cell apoptosis inhibition; AID 435005; INS-1E cytokine-induced death, ATP luminescence, 48 h; percent of positive-control rescue, neutral wells zero; protection from apoptosis, % (no concentration beside the values); hit rate 0.8% among 300,000;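 active = all replicates at 75% or more, or half of them and the mean; inconclusive = half reach 75% but not the mean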;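 also: 0% = cytokine-treated negative control wells and 100% = positive control rescue; higher means more ATP so stronger rescue from cytokine killing; wells of about 40 µL received 100 nL stock; the first replicate is given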
# Vif A3G: inhibitors of Vif binding to APOBEC3G peptide, primary screen, biochemical, TR-FRET, GST-Vif 1-94, biotin-A3G peptide, dose response retest (AID 1117319); TR-FRET GST-Vif / biotin-A3G peptide binding; higher % means a stronger effect; test concentration not given here; strong numbers were not always called active; one-dose inhibition, %; IC50 in µM for titrated hits; hit rate 0.57% among 260,000;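 active = above the screen mean plus three standard deviations and confirmed in dose response; inconclusive = results disagree or hit not tested in dose response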;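 also: Vif residues 1-94 fused to GST binding biotinylated APOBEC3G peptide 110-148; 0% = full assay without inhibitor and 100% = GST in place of GST-Vif; retest series ran down from 100 µM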
# Calb FLC: C. albicans growth modulation with fluconazole; C. albicans CaCi-2 (fluconazole-resistant clinical isolate) + fluconazole, Alamar Blue growth, 48 h; growth inhibition, % (no concentration beside the values); hit rate 0.57% among 300,000; AID 1979;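 active = most replicates above 75%; inconclusive = exactly half above 75%; inactive = most below 75%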;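 also: all wells also contain fluconazole at 8 µg/ml as a sub-toxic cotreatment; 0% = median of DMSO wells and 100% = median of geldanamycin control wells; wells of about 8 µL received 7.5 nL stock; the first replicate is given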
# rRNA inh HTS: inhibitors of bacterial rRNA selective over humanized ribosomes | E. coli WT GFP vs humanized-ribosome RFP mutants, fluorescence, 24 h; stronger effect = lower value; DMSO median 0, no signal -100 | GFP signal change (wild-type ribosome), % (no concentration beside the values) | hit rate 1.6% among 350,000 | AID 720706;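 active = significant combined selectivity score with lowered wild-type GFP, culture density cut under 30%, mutant RFP and density less affected; inactive = any of these conditions unmet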; also: one replicate is shown; some compounds called inactive have numbers as strong as hits
# AF4-AF9 inh: MLL-AF4/AF9 protein interaction inhibition; P42568; inhibition, % at 10 µM; AlphaScreen, biotin-AF4 peptide binding to FLAG-AF9; hit rate 0.47% among 350,000;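 active = every replicate reaching a set inhibition limit, whatever the replicate mean, cut at about 25% in these data; inconclusive = mean inhibition reaches that limit but some replicates miss it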;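 also: 0% = plate neutral control median and 100% = total signal loss; the record names both 10 and 1 µM as test concentration; the first replicate is given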
# Target sequence (P42568 whole entry, looked up): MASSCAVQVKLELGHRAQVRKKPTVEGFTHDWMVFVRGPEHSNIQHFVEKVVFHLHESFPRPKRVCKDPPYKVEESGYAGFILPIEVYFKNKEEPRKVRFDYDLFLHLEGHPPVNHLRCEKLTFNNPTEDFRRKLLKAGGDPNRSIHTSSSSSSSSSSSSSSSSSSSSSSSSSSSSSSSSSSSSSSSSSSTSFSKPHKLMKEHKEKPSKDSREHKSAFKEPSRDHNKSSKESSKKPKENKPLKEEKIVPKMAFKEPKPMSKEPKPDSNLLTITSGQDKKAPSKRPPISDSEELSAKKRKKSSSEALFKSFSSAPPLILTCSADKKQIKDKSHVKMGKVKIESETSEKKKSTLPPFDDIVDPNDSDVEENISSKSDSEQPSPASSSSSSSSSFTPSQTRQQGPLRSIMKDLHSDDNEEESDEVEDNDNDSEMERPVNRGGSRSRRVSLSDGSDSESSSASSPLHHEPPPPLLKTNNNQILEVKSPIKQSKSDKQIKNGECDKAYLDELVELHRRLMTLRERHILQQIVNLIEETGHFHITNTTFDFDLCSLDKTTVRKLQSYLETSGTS
# RanGTP-Imp inh: disruptors of Ran-importin-beta complex formation – biochemical, FRET, CFP-Ran, YFP-importin-beta, homogeneous, primary screen; inhibition, % (concentration not given with the values); AID 2216; cell-free CFP-Ran/YFP-importin-beta FRET ratio; hit rate 1.1% among 300,000;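 active = most replicates above 15%; inconclusive = exactly half above 15%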;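 also: 0% = DMSO wells and 100% = Ran loaded with GDP instead of GTP; wells of about 40 µL received 100 nL stock; the first replicate is given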
# rRNA inh HTS OD600: also measured in rRNA inh HTS; calls as there; OD600 change, %; measured here: OD600 growth;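 optical density of the mix in the first replicate; 0 = DMSO median and -100 = no signal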
# rRNA inh HTS RFP: recorded beside rRNA inh HTS, whose call it bears; RFP signal change, %; measured here: RFP humanized mutant strains;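 first replicate; 0 = DMSO median and -100 = no signal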
# * marks the source's active call; other numbers are inactive results; ? = inconclusive; . = not tested or not shown. An excerpt (hit frequency here may not be typical).
Molecule,AF4-AF9 inh,A1 inh,rRNA inh HTS OD600,rRNA inh HTS RFP,T cruzi inh,Calb FLC,Beta apoptosis,rRNA inh HTS,Vif A3G,RanGTP-Imp inh
CCCNc1nc2c(c(=O)n(C)c(=O)n2C)n1Cc1ccc(F)cc1,-4.0,-0.9,-2,-1.9,-2,7,17,2,?,-3.1
COc1ccc(-c2nnc(Nc3nc4c(OC)cccc4s3)o2)c(OC)c1,.,-1.8,.,.,41,101*,.,.,-3%,-15
CCn1c(SCC(=O)NCc2ccccc2)nc2nc3c(cc2c1=O)CCCC3,1.7,-0.4,14,-0.5,3,8,-3,6,4%,4.1
COc1ccc(CN2C(=O)CS/C2=N/N=C/c2cccs2)cc1,1.8,-0.5,.,.,-8,-3,-7,.,-2%,3.6
CCNC(=S)Nc1cc(OCC)c(NC(=O)c2cccs2)cc1OCC,.,0.8,.,.,-10,-3,-5,.,.,-0.2
O=C(NCCN1CCOCC1)c1sc2ccccc2c1Cl,-0.8,-0.1,-17,-3.4,0,1,.,-16,4%,?
O=C(CSc1nnc(NC(=O)C2CCC2)s1)NC1CC1,.,-0.1,.,.,4,-3,1,.,6%,0.2
CN1/C(=N\O)c2cccc3cccc1c23,.,0.5,.,.,-29,5,-4,.,4%,10
O=C(NCc1ccccc1)c1onc(CSc2ccc(Cl)cc2)c1C(=O)NCc1ccccc1,-3.6,-0.3,23,-2.5,20,-5,2,21,-9%,7.3
ClC(Br)=C(n1cnc2ccccc21)n1cnc2ccccc21,.,-0.5,.,.,5,-2,-3,.,-2%,1.0
OCCN1CCN(C(=S)Nc2ccc(Oc3ccccc3)cc2)CC1,1.6,-1.0,-3,-1.2,-16,-4,-9,0,-3%,-4.7
Cc1ccc(S(=O)(=O)NC(C)(C)CN2CCCCC2)cc1,2.9,0.1,10,2.4,2,2,-4,18,.,-6.2
COc1ccc(CCNS(=O)(=O)c2ccc(C3CNC(=O)C3)cc2)cc1OC (stereo unspecified),-2.2,-0.4,-10,3.7,0,7,-3,13,.,-0.7
COc1ccc(CNC(=O)C2CCCN2S(=O)(=O)c2ccc(C)cc2)cc1 (stereo unspecified),.,0.2,.,.,-8,8,-1,.,-7%,-4.1
Cc1c(NS(=O)(=O)c2ccccc2F)c(=O)n(-c2ccccc2)n1C,-4.9,0.6,8,-6.6,-16,11,.,2,.,1.8
C/C(=N\N=C(/N)SC1CC(=O)N(c2ccc(Cl)cc2)C1=O)c1cccs1 (stereo unspecified),.,-0.1,.,.,-9,8,8,.,0%,-0.6
CC(=O)c1c(C)[nH]c(-c2ccccc2)c1C,8.9,0.1,15,3.0,10,0,-6,8,2%,6.0
Cc1ccc(N2CC(C(=O)NCc3cccnc3)CC2=O)cc1 (stereo unspecified),.,0.7,.,.,-4,10,.,.,-8%,0.7
Nc1nnc(CC(=O)N/N=C\c2ccc(-c3cccc(Cl)c3)o2)s1,-2.0,0.2,-3,0.4,-7,-1,-8,1,26%,-1.6
Cc1ccc(SCc2c(C(=O)N/N=C/C3CC=CCC3)nnn2-c2nonc2N)cc1 (stereo unspecified),0.4,0.0,-44,-3.2,3,0,-2,-12,-3%,0.4
Cc1nc(NC(=O)COc2ccccc2)sc1C(=O)Nc1ccccc1,.,.,.,.,-17,15,4,.,-5%,-3.4
COc1ccc(NC(=O)c2ccco2)cc1NC(=O)COc1ccccc1,-0.9,-0.8,3,-1.4,-1,62,10,-4,0%,-16
CC1CN(C(=O)c2cc3ccccc3oc2=O)CC(C)O1 (stereo unspecified),-47,1.0,1,-1.8,-13,-1,4,4,-3%,0.6
COc1ccc(CNC(=O)COC(=O)/C=C/c2ccco2)cc1,-4.5,0.0,5,1.4,-14,-17,-5,-3,.,0.0
COc1cccc(-c2ncc3ccccc3c2COC(=O)CCC(=O)O)c1,-5.7,-1.5,-3,-8.7,.,.,-1,-4,.,.
COc1ccc(Cn2ccnc2SCC(=O)NC2CCCC2)cc1,-0.5,-0.3,4,3.5,6,0,0,1,2%,-2.5
Nc1cc(=O)[nH]c(SCC(=O)N2CCCC2)n1,3.9,-0.9,18,-2.2,.,.,-6,8,.,.
CCOc1ccc(S(=O)(=O)N(C)CC(=O)NCc2ccc3c(c2)OCO3)cc1,1.3,0.1,3,0.9,5,?,1,-3,.,-5.5
CCOC(=O)c1c(C2COc3ccccc3O2)csc1NC(=O)c1ccccc1 (stereo unspecified),.,0.6,.,.,22,0,3,.,-32%,2.2
Cc1cc(C)n(CCCNC(=O)c2ccc(C)c(S(=O)(=O)N3CCOCC3)c2)n1,1.0,0.0,6,-3.3,-5,-8,.,4,1%,0.6
CCN(CC)CCCNC(=O)c1[nH]c(C)c(C(=O)NC2CCCCC2)c1C,.,1.0,.,.,-3,1,0,.,15%,-1.9
COc1ccccc1CC(=O)Nc1ccc2c(c1)C(=O)NC2=O,0.3,-0.1,9,3.2,-5,-1,-9,5,.,-2.0
N#Cc1ccccc1NC(=O)COC(=O)CCc1ccc(S(=O)(=O)N2CCCCC2)cc1,.,0.7,.,.,6,8,1,.,.,-0.1
CC1CN(C(C)C)C(C)CC1OC(=O)c1ccccc1 (stereo unspecified),-3.0,0.6,16,2.1,-13,-3,6,27,.,-2.2
CC(=O)c1c(C)[nH]c(C(=O)Nc2ccc(C)c(C)c2)c1C,.,-1.7,.,.,17,96*,-8,.,>100µM*,-1.7
COc1ccc(-n2c(C)cc(/C=C3\C(=O)NN(c4ccccc4)C3=O)c2C)cc1,.,-2.2,.,.,-11,-2,0,.,17%,3.9
O=C(OC1CCOC1=O)C1CCN(S(=O)(=O)c2ccc(Cl)c(C(F)(F)F)c2)CC1 (stereo unspecified),-3.1,-5.9,16,0.2,-30,8,-9,10,2%,6.0
COc1ccccc1C(=O)NC(=O)COC(=O)CN1C(=O)NC2(CCCCC2C)C1=O (stereo unspecified),0.3,0.4,11,-7.4,-11,4,1,9,2%,0.1
COCc1cc(C)nc(SCC[N+](C)(C)CC(=O)c2ccccc2)c1C#N,0.3,0.1,8,0.1,-1,-10,2,-2,11%,-0.7
CCn1cc(Br)c(C(=O)Nc2ccc(Cl)cc2Cl)n1,.,-0.6,1,-2.2,-6,0,-2,0,-7%,-1.9
COC(=O)c1ccc(Cn2nc(C)c([N+](=O)[O-])c2C)o1,-0.2,-1.0,1,-5.5,-8,14,-1,2,9%,-0.9
CC(c1ccncn1)N(C)C(=O)c1ccc2oc(Cc3ccccc3)nc2c1 (stereo unspecified),-1.5,1.1,5,-0.7,3,3,4,0,.,8.8
N#Cc1ccc(CSc2nnc(-c3ccncc3)o2)cc1,-0.7,0.2,-2,-1.3,6,4,7,11,2%,-0.2
O=C(CSc1nnc(-c2cccc(F)c2)o1)N1CCOCC1,-0.7,-0.3,0,3.9,-13,2,-9,-2,19%,-2.0
COc1ccc(CC(=O)Nc2ccc(C(=O)Nc3ccccc3C(=O)O)cc2)cc1OC,.,-0.3,.,.,-12,10,-11,.,24%,2.0

# 3 compounds from above, arranged by the value under rRNA inh HTS OD600, smallest number first.
compound	rRNA inh HTS OD600
COC(=O)c1ccc(Cn2nc(C)c([N+](=O)[O-])c2C)o1	1
COCc1cc(C)nc(SCC[N+](C)(C)CC(=O)c2ccccc2)c1C#N	8
COc1ccccc1C(=O)NC(=O)COC(=O)CN1C(=O)NC2(CCCCC2C)C1=O (stereo unspecified)	11

# Entries from the list above that have a COOH group (2):
Molecule,AF4-AF9 inh,A1 inh,rRNA inh HTS OD600,rRNA inh HTS RFP,T cruzi inh,Calb FLC,Beta apoptosis,rRNA inh HTS,Vif A3G,RanGTP-Imp inh
COc1cccc(-c2ncc3ccccc3c2COC(=O)CCC(=O)O)c1,-5.7,-1.5,-3,-8.7,.,.,-1,-4,.,.
COc1ccc(CC(=O)Nc2ccc(C(=O)Nc3ccccc3C(=O)O)cc2)cc1OC,.,-0.3,.,.,-12,10,-11,.,24%,2.0

# Additional results.
Molecule,AF4-AF9 inh,A1 inh,rRNA inh HTS OD600,rRNA inh HTS RFP,T cruzi inh,Calb FLC,Beta apoptosis,rRNA inh HTS,Vif A3G,RanGTP-Imp inh
COc1cc(NC(=O)c2ccco2)c(C(=O)OCC(=O)Nc2ncc(Cl)cc2Cl)cc1OC,.,-0.5,.,.,-10,24,-3,.,9%,2.5
Cn1c(=O)[nH]c(=O)c2c1nc(N1CCCCCC1)n2CCSc1nc2ccccc2o1,.,-0.3,.,.,16,2,2,.,-3%,7.2
O=C(COC(=O)/C=C/c1ccccc1Cl)NCc1ccco1,-2.1,0.5,-8,1.0,-10,?,-2,-7,.,0.7
O=C(O)CCCC(=O)Nc1nc(-c2ccccc2)cs1,.,0.2,.,.,1,1,-3,.,21%,-1.0
CCCCCCCCCC(=O)N/N=C/c1ccc(C)s1,.,0.2,.,.,-2,-28,22,.,0%,-2.3
CC(C)C(NC(=O)c1ccc(F)cc1)C(=O)OCC(=O)N1CC(=O)Nc2ccccc21 (stereo unspecified),.,-0.2,.,.,-7,6,-1,.,.,-2.3
CCOC(=O)C1=C(C)NC2=C(C(=O)CC(C)(C)C2)C1c1cccc(C)n1 (stereo unspecified),.,0.9,.,.,3,7,0,.,?,?
Cc1cc(NC(=O)CSc2cn(CCNC(=O)c3ccc(F)cc3)c3ccccc23)no1,.,0.0,.,.,6,13,-7,.,-10%,-0.6
CNC(=O)COC(=O)/C=C/c1ccco1,-3.9,-1.5,28,8.7,-14,30,-5,28,-2%,2.2
Cc1cccc(NC(=O)C2CCCN(S(=O)(=O)c3ccc4c(c3)oc(=O)n4C)C2)c1 (stereo unspecified),-12,-0.2,-3,-15,-9,-6,-6,-1,-2%,-3.5
O=C(Nc1ccccc1C(=O)NCCc1ccccc1)c1ccco1,.,0.8,.,.,3,-5,1,.,2%,2.4
CNC(=O)COc1ncnc2sc(C)c(C)c12,.,-0.4,.,.,-4,6,-4,.,1%,0.4
Clc1ccc(CNC2CCN(Cc3ccccc3)CC2)cc1,-3.8,-0.4,9,0.4,3,-5,-11,11,-2%,0.3
OC(C#Cc1ccccn1)c1cccs1 (stereo unspecified),.,0.1,.,.,37,-12,-20,.,?,-2.9
Fc1ccc(C2CC(c3ccco3)=NN2c2ccccc2)cc1 (stereo unspecified),.,-1.4,.,.,5,7,-4,.,-9%,5.3
